Screening results: PubChem, National Center for Advancing Translational Sciences (NCATS)
Sfp inh: inhibitors of Bacillus subtilis Sfp phosphopantetheinyl transferase. Biochemical Sfp PPTase activity, qHTS. Potency, µM, for the others: max response, negative = inhibition, actives largely listed as inhibitors. 310,000 compounds, 3.5% hits. AID 1490; active = well fitted inhibition curve with a large enough effect; inconclusive = small, poorly fitted or top-dose-only effect, or another doubt; inactive = no such curve, though single readings can be large or run the other way;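 also: the enzyme is Sfp with the accession as filed and its product quenches rhodamine fluorescence; potency is read from the fitted curve at half-maximal effect; 0% = enzyme reaction without inhibitor and -100% = no enzyme wells; top concentration of the series not given in the record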
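Sfp 15 nM + cpd, 15 min RT; start w/ rhodamine-CoA 5 uM, BHQ-2-YbbR 12.5 uM (final); 50 mM Hepes pH 7.6, 10 mM MgCl2, 0.01% NP-40, 0.01% BSA; read 525/598 nm at 0 and 30 min.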
Menin-MLL FL inh: displaces fluorescein MLL peptide from human menin. FP activity change, % at 61.4 µM. Fluorescence polarization, fluorescein-MLL peptide displacement from menin. 290,000 tested, under 10 active; inconclusive = falling polarisation curve, or a change in total fluorescence; inactive = total fluorescence flat and polarisation flat or rising; no compound was filed as active; the % refers to the polarisation; negative = inhibition;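 also: % of control where 0% means no effect; inhibitors lower the polarisation; unlabelled MLL peptide was the positive control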
Starred values were filed as active, the others as inactive; ? = inconclusive; & = joins results of further samples; [ ] = dose if it differs, or a comment.

compound	Menin-MLL FL inh	Sfp inh
CCCCCCCCCCCCC/C=C/[C@@H](O)[C@H](CO)NCCCCCCCC	-1.6	-25%&-18%
CCOC(=O)C1=CC(OC(CC)CC)C(NC(C)=O)C(N)C1 (centres undefined)	-1.3	18%
CN(C)Cc1ccccc1-c1nccc(NC2CC2)n1	-0.6	17%
CC(=O)N[C@H](c1ccccc1)[C@@]1(C)C[C@@H]1[C@@H](C)C(=O)Nc1ccc2ccccc2c1	-1.0	23%
CO[C@@H]1COC(=O)[C@H](Cc2ccccc2)NC(=O)C/C=C\[C@@H](C)[C@H](OC)COC(=O)[C@@H](C)NC(=O)C/C=C\[C@H]1C	0.7&-0.7[11.7 µM]	6%&3%
O=c1ccc2ccc(OS(=O)(=O)O)cc2o1	1.1	5%
c1ccc([C@H]2NCCc3c2[nH]c2ccccc32)cc1	-0.6[11.7 µM]	-9%
Cc1cccc(CN2CCN([C@@H](c3ccccc3)c3ccc(Cl)cc3)CC2)c1	-4.3[24.8 µM]	10%
N#Cc1cccc(-c2ccc3ncnc(NCCN4CCOCC4)c3c2)c1	0.7	36%[activator]
COc1ccc2c(c1)O[C@@H]1c3ccc(OC)cc3OCC21 (some centres undefined)	4.3	8%
C=C1CCC[C@]2(C)C[C@H]3OC(=O)[C@H](CNCCc4ccccc4OC)C3CC12 (some centres undefined)	2.4	56µM*
CC(=O)Oc1ccc(C)cc1	-2.5	12%
O=C(/C=C/c1ccccc1)N1CCCC1CO (centres undefined)	?	12%
CN(Cc1ccco1)c1ccnc(-c2ccoc2)n1	?	50µM*
O=c1cc(-c2cccc(O)c2O)oc2ccccc12	?	79µM*
CN(C)CCCCSC(=N)N	2.2&-24	?
COc1ccc(C(=O)N2CCC3(CCN(Cc4ccccc4OC)CC3)CC2)cc1	0.0	27%
COC(=O)C(N)CS (centres undefined)	-5.6	-96%
O=c1c(-c2ccc(F)c(F)c2)nc2cncnc2n1-c1ccccc1	5.5	16%
Cn1c(=O)c(-c2cc(F)cc(F)c2)nc2cnc(N3CCNCC3)nc21	-14	-1%
N#Cc1cccc(-c2cc(-n3ccnc3)ncn2)c1	-0.3	-3%
COCC(=O)N1CCC2(CCCN(c3ccc(-c4ccccc4)cc3)C2)CC1	?	-20%
COc1cccc([C@@H]2Oc3ccc(Br)cc3C[C@H]2OC(=O)N[C@H]2CCCc3ccccc32)c1	-7.9	-22%
C#CCCCO/N=C1/C[C@@H](O)[C@@H](O)[C@@H]2[C@@H]3C(=O)N(C[C@@H]4CCCO4)C(=O)[C@H]3CC[C@H]12	2.4[11.7 µM]	-13%
CCN1CCCC1Cn1c(-c2ccccc2)nc2c(N3CCOCC3)nc(C)nc21 (centres undefined)	-4.5	22%
COC(=O)N1CCC2(CCCN(Cc3cc(C(F)(F)F)cc(C(F)(F)F)c3)C2)CC1	1.1	8%
O=S(=O)(Nc1cccc2cccnc12)c1ccc(Br)s1	1.7	10%
CS(=O)(=O)N1CCC2(CCCN(C(c3ccccc3)c3ccccc3)C2)CC1	5.6	13%
O=C(O)c1ccc(-c2c3nc(c(-c4ccc(C(=O)O)cc4)c4ccc([n-]4)c(-c4ccc(C(=O)O)cc4)c4nc(c(-c5ccc(C(=O)O)cc5)c5ccc2[n-]5)C=C4)C=C3)cc1.[Mn+3]	?	-23%&20%
C=CCC(C)(O)CCc1ccccc1 (centres undefined)	-6.3	14%

Given with values ahead of the structure: part of the list above
Menin-MLL FL inh,Sfp inh,Compound
2.4[11.7 µM],-13%,C#CCCCO/N=C1/C[C@@H](O)[C@@H](O)[C@@H]2[C@@H]3C(=O)N(C[C@@H]4CCCO4)C(=O)[C@H]3CC[C@H]12
?,-20%,COCC(=O)N1CCC2(CCCN(c3ccc(-c4ccccc4)cc3)C2)CC1

Later entries
compound	Menin-MLL FL inh	Sfp inh
Nc1cccc2c1CN(C1CCC(=O)NC1=O)C2=O (centres undefined)	-0.4	0%
OC[C@@H]1OC(O)[C@@H](O)[C@H](O)[C@H]1O (some centres undefined)	-1.1	-4%
C/C=C(\C)[C@H](O)C[Si](C)(C)c1ccccc1	6.1	-7%
Cc1noc(C)c1-c1ccc2ncnc(N(C)Cc3ccco3)c2c1	-0.8	-20%
O=C(CN1CCN(Cc2ccc3c(c2)OCO3)CC1)N1c2ccccc2Sc2ccccc21	0.7	?
C=CC[C@@](C(C)=O)(C(=O)OC)C(NC(=O)OC(C)(C)C)c1ccccc1 (some centres undefined)	-3.4	-15%
COc1ccc(Oc2ncc3nc(CCc4ccccc4)c(=O)n(C)c3n2)cc1	4.8	-16%
Cc1noc(C)c1C(=O)N1CCC[C@@]2(CCN(Cc3nccs3)C2)C1	-5.7	17%
Cc1cnc(CNc2ccnc(-c3ccccc3CN(C)C)n2)cn1	-0.7	-21%
CN(C)C(=O)c1ccc(-c2ccc3ncnc(N4CCC(C(=O)O)CC4)c3c2)cc1	11	8%
C[C@@H]1/C=C\CC(=O)OC[C@H](C)C(=O)N[C@@H](Cc2ccccc2)C(=O)OC1	-0.2[11.7 µM]	8%
CN1CCC2(CC1)CCN(C(=O)c1cccc(F)c1)CC2	-5.0	17%
COC(=O)c1ccc(C(NC(=O)OCc2ccccc2)/C(C)=C/[C@@H](C)C(=O)NCCc2c[nH]c3ccc(OC)cc23)cc1 (some centres undefined)	-4.2	12%
CC(C)=CCC/C(C)=C/CO/N=C1/C[C@@H](O)[C@@H](O)[C@@H]2[C@@H]3C(=O)N(Cc4ccccc4)C(=O)[C@H]3CC[C@@H]12	6.0[11.7 µM]	10%
C=C1C(=CC=C2CCC[C@@]3(C)[C@@H]2CC[C@H]3[C@H](C)CCCC(C)C)C[C@@H](O)C[C@@H]1O	9.1	4%
Cc1c(C)c2c(c(C)c1O)CCC(C)(COc1ccc(CC3SC(=O)NC3=O)cc1)O2 (centres undefined)	0.0&2.5&-2.4	-25%&-7%&0%&-15%
COc1ccc(Oc2ncc3nc(C)c(=O)n(C[C@H]4CCCO4)c3n2)cc1	7.0	4%
COc1ccc(O[C@H]2C=C[C@@H](c3ccccc3)O[C@H]2COC(=O)CC/C(C)=N\OC[C@@H](C)[C@H](OCc2ccccc2)C(C)C)cc1	-1.8[11.7 µM]	9%
CCOC(=O)N/N=C1/C[C@@H](O)[C@@H](O)[C@@H]2[C@H]3C(=O)N(c4ccc(F)cc4F)C(=O)[C@@H]3CC[C@@H]12	-1.0[11.7 µM]	-7%
NC(=O)c1ccc[n+]([C@@H]2OC(COP(=O)([O-])OP(=O)(O)OCC3OC(n4cnc5c(N)ncnc54)C(O)C3O)C(O)C2O)c1 (some centres undefined)	3.0	6%
c1ccc(N2CCN(CCCOc3ccc4c(c3)OCO4)CC2)cc1	-16	-16%&-2%
COC(=O)C[C@H]1c2ccccc2C2=C(C[C@@H](C)[C@H]3C(=O)N(c4ccccc4)C(=O)[C@@H]23)N1C(=O)OC	1.0&0.8[11.7 µM]	9%
CC#CC(C)C(OCOC)C(CC(C)Cc1cc(Br)cc(OCc2ccccc2)c1OC)OC (centres undefined)	1.7[11.7 µM]	-1%
O=C(O)COc1ccc(OCCNC[C@@H](O)COc2ccccc2)cc1	-6.0	-9%
c1cncc(-c2nc(N3CCNCC3)c3ccccc3n2)c1	-6.2	14%
NCCn1c(=O)c(CCc2ccccc2)nc2cncnc21	-22	-28%
C=COCC1CN2C(CCC(C)C2c2ccc(Br)cc2)C(=O)O1 (centres undefined)	0.8&3.9[11.7 µM]	7%&9%
COc1cccc(Nc2ncc3nc(-c4ccc(Cl)cc4)c(=O)n(C[C@H]4CCCO4)c3n2)c1	?	11%
Clc1ccccc1-c1nccc(NCc2ccccc2)n1	-0.7	12%
COc1cccc2oc(-c3ccc(O)cc3)cc(=O)c12	?	-26%
N[C@]1(C(=O)O)CCc2cc(P(=O)(O)O)ccc21	-13	-3%
C#CCCCC(=S)Nc1ccccc1	-7.8	4%
c1ccc2c(NCCN3CCOCC3)nc(-c3ccoc3)nc2c1	-2.2	0%
COc1ccc(C(=O)N2CCC3(CCCN(CC(C)C)C3)CC2)cc1	4.3	9%
CC1=C(C)C(=O)C(C(CCCCCC(=O)O)c2ccccc2)=C(C)C1=O (centres undefined)	3.4	2%
CC(=O)OCC1OC(n2cnc3c(Cl)nc(Cl)nc32)C(OC(C)=O)C1OC(C)=O (centres undefined)	1.5	10%
O=C(O)COc1nn(Cc2ccccc2)c2ccccc12	0.9	13%
COC(=O)NC(c1ccccc1)C1(C(=O)OC)C(=O)Cc2ccccc21 (centres undefined)	0.1	-2%
CCCCc1nc2c(c3c1C[C@H](C)OC3)CN(C(=O)NCc1ccco1)CC2	-0.3[11.7 µM]	3%
CO[C@@H]1/C=C\CC(=O)N2CCC[C@@H]2C(=O)OC[C@@H](C)C(=O)OC[C@H]1C	3.9[11.7 µM]	-6%
CCCCC[C@H](O)/C=C/[C@H]1OC(O)C[C@H](O)[C@@H]1C/C=C\CC(=O)O (some centres undefined)	-2.5	1%
Cc1noc(C)c1C(=O)N1CCC[C@@]2(CCN(Cc3cc(C(F)(F)F)cc(C(F)(F)F)c3)C2)C1	4.0	-5%
CCOC(=O)CNC(=O)O[C@@H]1C(=O)c2ccc(OC)cc2O[C@H]1c1ccc2c(c1)OCO2	-5.4	4%
Cc1cnc(CNc2cc(-c3cccc(NS(C)(=O)=O)c3)ncn2)cn1	-5.6	-9%
CCOC(=O)c1c(N)sc(C)c1-c1ccccc1	-1.6	35µM*
CCCCc1nc2c(c3c1C[C@H](C)OC3)CN(S(=O)(=O)c1ccc(C#N)cc1)CC2	-1.7[11.7 µM]	-4%
CCC1C(=O)CC2CCN3C(=O)CCC1C23 (centres undefined)	-5.4	15%
Cc1cnc(CNc2cc(-c3cccnc3)ncn2)cn1	?	11%
COC(=O)N1CCC2(CCCN(C(=O)Nc3cccc(C#N)c3)C2)CC1	2.0	7%
C[C@H]1Cc2c(-c3ccccc3)nc3c(c2CO1)CN(C(=O)c1ccco1)CC3	0.8[11.7 µM]	8%
C[C@@H]1C(=O)CC2C(C)(C)CCC[C@]2(C)[C@@]1(O)CCc1ccoc1 (some centres undefined)	-1.1	-16%
COC(=O)NC(c1ccc(F)cc1)C(C(C)=O)C(=O)OC (centres undefined)	-6.5[11.7 µM]	9%
CC1=CCc2c(cc3oc(C)cc(=O)c3c2O)OC1	0.1	-9%
O=C(O)/C=C1\CCCc2ccccc2[C@H]1O	22	-3%
CCOc1ccc(N(C(=O)OC(C)(C)C)C(=O)c2ccc(O[Si](C)(C)C(C)(C)C)cc2)c(I)c1	-5.4	-6%
O=S(=O)(c1ccccc1)N1CCC2(CCCN(Cc3cc(C(F)(F)F)cc(C(F)(F)F)c3)C2)CC1	1.0	10%
CN[C@]1(C)[C@H]2CC[C@@H](C2)C1(C)C	-3.1[24.8 µM]	2%
COC(=O)[C@@]1(Cc2ccc(F)cc2)[C@H]2c3cc(C(=O)N4CCCC4)n(CCc4c[nH]c5cc(F)ccc45)c3C[C@H]2CN1C(=O)c1ccccc1	?	14%
CC(=O)OCC1OC(C#Cc2ccc(Cl)cc2)C=CC1OC(C)=O (centres undefined)	-0.7&-2.1[11.7 µM]	8%&0%
CN1CCC[C@@H]1c1cccnc1	2.0	22%

Entries of single compounds, quoted from the list:
`CCC1C(=O)CC2CCN3C(=O)CCC1C23` (centres undefined) in the list: Menin-MLL FL inh = -5.4; Sfp inh = 15%
`O=S(=O)(c1ccccc1)N1CCC2(CCCN(Cc3cc(C(F)(F)F)cc(C(F)(F)F)c3)C2)CC1` in the list: Menin-MLL FL inh = 1.0; Sfp inh = 10%

Next part:
compound	Menin-MLL FL inh	Sfp inh
COc1ccc2[nH]cc(CCNc3ncncc3-c3ccccc3CN(C)C)c2c1	-1.7	-11%
CC(C)C[C@@H](CC(=O)N[C@@H](CCCN)CC(=O)N[C@@H]1CCNC[C@H]1C(=O)N[C@H](CC(=O)N[C@@H](CCC(=O)O)CC(=O)O)CC(C)C)NC(=O)[C@@H]1CCCC[C@H]1N	-2.3	-1%
COc1ccc2c(c1)OCC(Cc1ccc(OC)c(OC)c1)C2=O (centres undefined)	2.8	-1%
CS(=O)(=O)Nc1cccc(-c2ccc3ncnc(N4CCOCC4)c3c2)c1	9.7	18%
COc1ccc(-c2ccc(C3C4C=CCCC4(C)C(=O)N3Cc3ccccc3)c(F)c2)cc1 (centres undefined)	0.2	?
COc1cccc(-c2nc(NCCNC(C)=O)c3ccccc3n2)c1	-5.9	4%
COC(=O)c1ccc(-c2ccc(OC)c(C3C4C=CCC(C)C4C(=O)N3Cc3ccccc3)c2)cc1 (centres undefined)	-4.9	-6%

This is a subset (hit frequency here may not be typical).
